Assay outcomes deposited in PubChem by several laboratories.
WNV protease inh – blocks West Nile virus NS2B-NS3 protease activity; 65,000 tested, 0.18% active; AID 577; WNV NS2B-NS3 protease, fluorogenic substrate Ex360/Em465; stronger effect = lower value; z-score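 (tested at a level between 10 and 100 µM)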;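 active = z-score at -3 or under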;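 also: score is relative to mean and spread of the compound wells of a plate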
Target sequence (P06935 1371-1501 limits assumed): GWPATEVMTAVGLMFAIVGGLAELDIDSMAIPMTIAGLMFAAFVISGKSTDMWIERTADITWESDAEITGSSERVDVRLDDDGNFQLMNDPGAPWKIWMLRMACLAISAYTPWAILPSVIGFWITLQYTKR
Target sequence (P06935 1502-1679 limits assumed): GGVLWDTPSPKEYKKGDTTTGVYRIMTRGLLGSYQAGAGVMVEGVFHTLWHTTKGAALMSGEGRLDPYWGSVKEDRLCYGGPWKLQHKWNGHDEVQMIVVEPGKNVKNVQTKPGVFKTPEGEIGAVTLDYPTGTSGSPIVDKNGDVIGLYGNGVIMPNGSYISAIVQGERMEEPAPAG
MT1-MMP promoter – inhibitors of MT1-MMP promoter transcription, cell-based, luciferase reporter, luminescence (AID 618); MT1-MMP promoter luciferase reporter cells, luminescence; calls from a first round at 10 µM; hits with a dose series show EC50 in µM; 87,000 tested, 0.62% active;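 active = over half of the reporter light lost at 10 µM or EC50 under 50 µM; inactive = the rest and hits that failed the dose series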;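 also: actives suppress MT1-MMP promoter-driven transcription so potencies describe inhibitors; HT1080 fibrosarcoma cells; overnight exposure; toxic or luciferase-blocking compounds were not removed from the actives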
Hsc70 – Hsc70 inhibitors, probe displacement, primary screen, biochemical, fluorescence polarization (AID 568); one-dose displacement, % at 20 µM; IC50 in µM for titrated hits; 83,000 tested, under 10 active; Hsc70 fluorescence polarization, probe displacement; higher % means a stronger effect; strong numbers were not always called active;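 active = displacement above 50% without optical interference and an IC50 on retest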;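 also: ATPase domain with a fluorescein-tagged ATP probe; 0% = vehicle and 100% = excess ADP; read after one hour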
Active calls of the source: *; i = inactive; . = not tested or not shown; & = joins results of further samples. Only part of the results is shown; rates above refer to the full screens.

SMILES,WNV protease inh,MT1-MMP promoter,Hsc70
COc1ccc(NC(=O)c2cnc3sccn3c2=O)cc1OC,0.59,i,1.4%
O=C(NCCCN1CCCC1=O)c1cncc(Br)c1,-0.29,i,0.2%
O=C(c1ccc(N2CCCCS2(=O)=O)cc1)N1CCN(c2ccc(N3CCOCC3)nn2)CC1,2.4,i,-1.0%
CCCCN(CC)Cc1c(C)[nH]c2ccccc2c1=O,0.45,i,4.1%
CCOC(=O)N1CCc2c(sc(NC(=O)c3ccc(Cl)s3)c2C(N)=O)C1,-0.28,i,-10%
O=c1[nH]c2ccccc2n1Cc1ccc(Cl)cc1,.,i,-3.1%
O=S(=O)(NCC(c1cccnc1)N1CCN(c2ccc(F)cc2)CC1)c1ccccc1 (stereo not given),-0.37,i,-5.6%
Cc1nc(C)n(C(=O)N(c2ccccc2)c2ccccc2)n1,0.34,i,4.9%
Cc1cc(NC(=O)CCC(=O)N(c2cccnc2)C(C(=O)NC2CCCC2)c2ccccc2)no1 (stereo not given),-0.03,i,-3.6%
COc1ccccc1N1CCN(C(CNC(=O)c2ccco2)c2cccnc2)CC1 (stereo not given),-1.1,i,6.4%
COc1ccc(CCNC(=O)COC(=O)c2cnc(C)cn2)cc1,.,i,15%
CCCOc1ccccc1C1C(C(=O)OC)=CN(C(C)C)C=C1C(=O)OC,1.2,i,-5.8%
COc1ccc(N2C(=O)C3CCCN3C2c2cc(OC)c(OC)cc2OC)cc1 (stereo not given),2.2,i,0.0%
O=C(NCc1ccc2c(c1)OCO2)c1ccc(S(=O)(=O)N2CCCCC2)cc1,.,i,-2.0%
O=CNCCCc1nc2ccccc2n1Cc1ccccc1,-1.8,i,0.8%
O=C(CSc1nc(-c2ccccc2)c(-c2ccccc2)[nH]1)N1CCN(S(=O)(=O)c2ccccc2)CC1,.,i,1.4%
CCc1ccc2[nH]c(=O)c(C(c3nnnn3CC3CCCO3)N3CCN4CCCC4C3)cc2c1 (stereo not given),0.34,i,-2.8%
CC(C)c1nnc(NC(=O)CCC(=O)N2CCN(Cc3ccccc3)CC2)s1,0.18,i,0.0%
N#Cc1cnc(Nc2nc3ccccc3o2)nc1-c1ccccc1,0.5,i,-13%
CCC(=O)Nc1c(-c2ccc(OC)cc2)c(=O)c2ccccc2n1C,-1.5,i,2.2%
O=P(O)(O)c1ccccc1OCc1ccccc1,1.3,i,3.6%
CC(C)CCOC(=O)C1C2C=CC3(CN(Cc4cccs4)C(=O)C13)O2 (stereo not given),1.2,i,-0.1%
CCN1CCCC1CNC(=O)c1c(O)c2c([nH]c1=O)CCCC2 (stereo not given),0.35,i,8.8%
CCCSc1nnc2n(Cc3ccccc3)c(=O)c3c4c(sc3n12)CCC4,0.49,i,-3.1%
Cc1ccc(-c2nnc(CSc3nnc4c5c(C)c(C)sc5nc(C(C)C)n34)o2)cc1,-0.28,i,-12%
Cc1ccccc1C(=O)Nc1nnc(-c2ccc(F)cc2)o1,0.76,i,1.2%
Cc1cccc(C(=O)O/N=C(\N)c2ccc(Br)cc2)c1,.,i,-1.6%
O=C(CN1CCCC1)N1CCCc2c1c(=O)oc1ccc(OCc3ccccc3)cc21,0.49,i,-1.5%
COc1ccc(-c2cc(C(F)F)n3ncc(C(=O)N4CCCCC4)c3n2)cc1,.,i,-2.2%
CC(C)NC(=O)CSc1nc2ccccc2n1-c1ccccc1,0.57,i,-2.7%
CCn1c(=O)n(CC)c2cc(S(=O)(=O)N3CCc4ccccc43)ccc21,-0.1,i,2.2%
O=C(CSc1nnc(-c2ccco2)n1Cc1ccccc1)OC1CCCCC1,0.49,i,-2.6%
Cc1nnc(NC(=O)CCC(=O)NCc2cccs2)s1,.,i,2.6%
CCCCCCCCN1C(=O)N(C)C(N(O)C(=O)NC)C1(C)C (stereo not given),.,i,-0.3%
COc1cc(=O)n2c(n1)SCCC2,.,i,-2.1%
COC(=O)Cn1c2ccc(C)cc2c2nc(C)sc21,.,i,-2.0%
CSc1nc(-c2ccccc2)nc(N2CCN(C)CC2)c1C(C)=O,1.1,i,-0.7%
CCOc1ccc(NS(=O)(=O)c2ccc(NS(C)(=O)=O)cc2)cc1,-0.31,i,11%
O=C(O)CN(CCO)CCN(CC(=O)O)CC(=O)O,-1&-0.81,i,-4.8%&8.7%
Cc1cccc(-c2nnc(SCC#N)n2-c2ccccc2)c1,-0.67,i,6.3%

6 records picked at random from those above, as already listed:
SMILES,WNV protease inh,MT1-MMP promoter,Hsc70
CSc1nc(-c2ccccc2)nc(N2CCN(C)CC2)c1C(C)=O,1.1,i,-0.7%
Cc1ccc(-c2nnc(CSc3nnc4c5c(C)c(C)sc5nc(C(C)C)n34)o2)cc1,-0.28,i,-12%
CCN1CCCC1CNC(=O)c1c(O)c2c([nH]c1=O)CCCC2 (stereo not given),0.35,i,8.8%
CC(C)NC(=O)CSc1nc2ccccc2n1-c1ccccc1,0.57,i,-2.7%
CC(C)CCOC(=O)C1C2C=CC3(CN(Cc4cccs4)C(=O)C13)O2 (stereo not given),1.2,i,-0.1%
CCn1c(=O)n(CC)c2cc(S(=O)(=O)N3CCc4ccccc43)ccc21,-0.1,i,2.2%

Later entries.
SMILES,WNV protease inh,MT1-MMP promoter,Hsc70
CC(C)=C1SC(N2CCN(c3cccc(C(F)(F)F)c3)CC2)=NC1=O,.,i,2.7%
O=C(Nc1nnc(C2CCCCC2)s1)c1cccs1,-0.26,i,4.7%
C=CCc1c(C)nc(C)nc1N/N=C/c1ccccc1O,.,i,-4.9%
O=C(NCC1CCCO1)c1cnn2c1NC(c1ccccc1)CC2C(F)(F)F (stereo not given),-0.24,i,-6.8%
COc1ccc(Cn2c(=O)[nH]c3cc(C(=O)NCc4ccc5c(c4)OCO5)ccc3c2=O)cc1,.,i,6.2%
c1ccc(-n2cccc2CNC2CCCCC2)cc1,1.4,i,-0.2%
O=S(=O)(c1ccc(Cl)s1)N1CCN(Cc2ccccc2)CC1,0.64,i,6.8%
CCOC(=O)c1c(C)oc2c1c(C(c1cccnc1)N1CCCCC1)c(O)c1ccccc12 (stereo not given),.,i,-1.1%
CN(C(=O)c1ccccn1)c1nnc(-c2ccccn2)s1,-0.5,i,1.6%
O=S(=O)(c1ccc(F)c(F)c1)N1CCN(Cc2ccc3c(c2)OCO3)CC1,-1.4,i,-3.9%
CC1(C)NC(=O)N(CC(O)CN(Cc2ccccc2)Cc2ccccc2)C1=O (stereo not given),-1.2,i,-0.6%
O=S(=O)(c1ccc(-c2csc(-c3cccnc3)n2)cc1)N1CCCC1,-0.18,i,5.1%
CC(=O)C1=C(C)Nc2ncnn2C1c1ccc(Cl)cc1Cl (stereo not given),-1,i,-3.5%
COC(=O)c1ccccc1NC(=O)CSc1nnc(-c2ccoc2C)n1C,-0.91,i,-1.0%
S=C1NC(c2ccccc2)=NCN1c1ccc(Br)cc1,.,i,2.0%
Cc1cc(NC(=O)CN2CCCC2c2nc3ccccc3s2)no1 (stereo not given),-0.64,i,2.2%
Cc1nnc(SC(C)C(=O)Nc2ccc(S(=O)(=O)N3CCCCC3)cc2)s1 (stereo not given),0.38,i,-1.6%
CCN(CC)C(=O)c1cn(C)c(=O)c2cc(OC)c(OC)cc12,-0.35,i,2.9%
Cn1cccc1C(=O)Nc1nc(-c2ccccn2)cs1,3,i,-3.0%
Cc1ccccc1NC(=O)COC(=O)CN1C(=O)NC(C)(C)C1=O,.,i,4.5%
O=C(CCN1C(=O)COc2ccccc21)NCCN1CCc2ccccc2C1,0.71,i,-8.3%
NC(=O)c1cc(Cc2ccccc2)sc1NC(=O)c1ccco1,-0.52,i,4.3%
Cc1ccc(-c2nnc(SCC#CCOC(=O)c3cccs3)o2)cc1,.,i,-2.2%
O=C(c1ccccc1NS(=O)(=O)c1cccs1)N1CCCC1,0.35,i,-2.7%
CCCNC(=O)C1CCN(c2nc(C)cc(C)n2)CC1,0.33,i,2.4%
CCOC(=O)N1CCC2(CC1)C(C#N)=C(N)Oc1n[nH]c(CSc3ccc(C)cc3)c12,-0.87,i,-6.4%
COc1ccccc1C(=O)NCCCN1CCCC1=O,-0.38,i,-2.1%
C=CCn1cnc2c(c1=O)c1nc3ccccc3nc1n2/N=C/c1cccc(OC)c1OC,-0.42,i,-2.0%
O=C(c1oc(=O)c2ccccc2c1-c1ccccc1)N1CCN(C2CCCCC2)CC1,0.82,i,5.4%
CCCCn1nnnc1NCc1cc(OC)c(OC)cc1OC,-0.54,i,-11%
COc1cccc(OCc2nc3ccccc3c(=O)n2N)c1,1.1,i,1.3%
Cc1ccccc1C(=O)c1ccc2c(c1)n(C)c(=O)n2C,-0.11,i,-2.6%
CC(=O)Cc1nsc(NC(=O)c2c(-c3ccccc3Cl)noc2C)n1,-0.2,i,-3.1%
COc1cccc(C(c2nnnn2Cc2ccccc2)N2CCN(C(=O)c3ccco3)CC2)c1OC (stereo not given),0.45,i,-5.3%
Cc1ccnc(NC(=O)CN(C)S(=O)(=O)c2cccc3nsnc23)c1,-1.2,i,0.5%
O=C(NCCC(=O)N1CCNC1=O)OCc1ccccc1,-0.75,i,-0.9%
COc1ccc(-c2cnn(-c3ccccc3)c2N)cc1OC,-0.05,i,1.8%
CCOC(=O)CSc1nnc(CNC(=O)c2cccs2)n1-c1cc(C)ccc1C,-0.23,i,3.2%
COc1ccccc1N1C(=O)CCC1(C#N)c1ccc(Br)cc1 (stereo not given),.,i,1.6%
Nc1nonc1-c1noc(CCCCCN2C(=O)c3ccccc3C2=O)n1,-0.92,i,-4.7%

(continued)
Sequence of screens – WNV protease inh | MT1-MMP promoter | Hsc70
COC(=O)c1c(NC(=O)c2cccs2)sc2c1CCC(C)C2 (stereo not given)
    -1.7 | i | -1.7%
O=C(CS(=O)(=O)c1ccccc1)Nc1nc(-c2ccccc2)cs1
    -0.28 | i | -3.0%
CCOc1ccccc1OCCCCCc1c(C)n[nH]c1C
    0.71 | i | -3.0%
COc1ccc(Cl)cc1NC(=O)C(C)Sc1n[nH]c(N)n1 (stereo not given)
    . | i | -1.7%
O=C(NCc1ccccc1)C1C2C=CC3(CN(Cc4cccnc4)C(=O)C13)O2 (stereo not given)
    0.53 | i | 0.2%
COc1ccc(S(=O)(=O)Nc2nncs2)cc1
    -1.1 | i | 3.4%
CCOC(=O)N1CCC(NC(=O)c2ccc(NC(=O)C3CCCO3)cc2)CC1 (stereo not given)
    -0.67 | i | 0.3%
CCc1c(C(=O)Nc2ccncc2)csc1C
    1.5 | i | 5.0%
Cc1cc(C(=O)CSc2nnc(-c3ccc(F)cc3)o2)c(C)n1CC1CCCO1 (stereo not given)
    . | i | 8.2%
O=C(CCCn1c(=O)c2sccc2n(CC(=O)OCc2ccccc2)c1=O)NCc1ccco1
    -0.31 | i | 3.6%
CCOC(=O)CC1=C(C(=O)OCC)C(c2ccc(C)o2)C(C#N)=C(N)O1 (stereo not given)
    -0.29 | i | 19%
Cc1noc(C(=O)N2CC3(C)CC2CC(C)(C)C3)c1Cl (stereo not given)
    -0.64 | i | -2.4%
O=S(=O)(c1cccs1)N1CCN(CC(O)COC2CCCc3ccccc32)CC1 (stereo not given)
    -0.33 | i | 11%
O=C(CSc1nc2cc(Cl)ccc2o1)Nc1ccc(N2CCOCC2)cc1
    . | i | 1.2%
COc1ccccc1-c1c(C#N)c(SCC(=O)N2CCCC2)nc(C)c1C(N)=O
    -0.57 | i | -1.1%
COc1ccc(Cc2nnc(NC(=O)Cn3cnc4c3c(=O)n(C)c(=O)n4C)s2)cc1OC
    . | i | 8.9%
Cn1c(C(=O)Nc2ccc3c(c2)OCCO3)cc2sccc21
    -1.3 | i | -0.1%
COc1ccc(OC)c(C(=O)CSc2nnc(Cc3cccs3)n2C)c1
    0.9 | i | -0.7%
O=C(CCN1C(=O)C2C3C=CC(C3)C2C1=O)N1CCN(c2cccc(Cl)c2)CC1 (stereo not given)
    -0.98 | i | -2.1%
Cc1cccc(-n2nnc3cnn(C)c3c2=O)c1
    . | i | 1.6%
O=C(Nc1ccc2c(c1)OCCO2)c1cccc(S(=O)(=O)N2CCOCC2)c1
    -0.81 | i | -6.1%
COC(=O)CSc1nnc(Cc2cc(=O)[nH]c(=O)[nH]2)n1-c1cccc(OC)c1
    -0.11 | i | 2.0%
O=C(c1ccc(Cl)s1)N1CCc2ccccc21
    -0.71 | i | 2.8%
O=C(c1ccc(N2CCOCC2)nc1)N1CCOCC1
    -0.01 | i | -5.3%
O=C1CCCC2=C1C1(CCCC1)N=C(Nc1nc3ccccc3s1)N2
    0.13 | i | 1.0%
CCOC(=O)Cn1c(=O)c2c(nc3n2CCN3Cc2ccccc2)n(C)c1=O
    0.26 | i | -3.9%
COc1ccc2c(c1)C1(C)CC(C)(C)N2C(=O)N1c1ccccc1 (stereo not given)
    -0.76 | i | 0.9%
CCOc1ccccc1OC(=O)c1ccco1
    -0.41 | i | 0.7%
Cc1ccc2oc(-c3cccc(NC(=O)c4cc(-n5cnnc5)ccc4Cl)c3)nc2c1
    . | i | -3.1%
